Screening results from PubChem BioAssay.
Vaccinia mCherry: vaccinia inhibition (mCherry reporter) | 0.63% of 310,000 active | Vaccinia virus mCherry reporter infection, fluorescence; about a quarter of the inactives have no number | Potency, µM (titrated, usually from 36.5 µM), for the others: at the highest dose activity change, negative = inhibition, usual class: inhibitors; active = well fitted inhibition curve with a large enough effect; inconclusive = small, poorly fitted or top-dose-only effect; inactive = no such curve, though single readings can be large or run the other way; tested in A549 cells; note: nearly all actives have a fitted effect of over 35% in size; inactives centre near -10
VACV Venus inh: inhibitors of vaccinia virus (Venus reporter); Vaccinia virus Venus reporter expression, fluorescence; Potency, µM (doses to about 36.5 µM), without a hit: at the highest dose activity change, negative = inhibition, most hits filed as inhibitors; 0.46% of 330,000 active; AID 720580; active means well fitted inhibition curve with a large enough effect; inconclusive means small, poorly fitted or top-dose-only effect; inactive means no such curve, though single readings can be large or run the other way; tested in A549 cells; note: nearly all actives have a fitted effect of over 30% in size; inactives centre near -10
* marks the source's active call; other numbers are inactive results; i = inactive; ? = inconclusive; . = not tested or not shown; & = joins results of further samples; [ ] = another dose, or the depositor's remark. % is set by controls: 0 for no effect and ±100 for the full control effect; potency is the fitted concentration of half-maximal effect.

SMILES	Vaccinia mCherry	VACV Venus inh
Cc1c(C(=O)N2CC3(CC(c4cccc(NC(=O)CC(c5ccccc5)c5ccccc5)c4)=NO3)C[C@@H]2C(N)=O)cc([N+](=O)[O-])cc1[N+](=O)[O-] (some centres undefined)	-16%	-14%
Cc1ccc(-n2nc(CO)c(C(=O)NCCCCc3ccccc3)n2)cc1	-12%	-9%
N#Cc1cn(OCc2ccccc2)c(=O)[nH]c1=O	i	-12%
CSc1cccc(NC(N)=S)c1	-6%	-28%
Cc1cccc(CNC(=O)c2ccc3nc(-c4ccccc4)c(-c4ccccc4)nc3c2)c1	-5%	-12%
CN(C)S(=O)(=O)c1cccc(NC(=O)c2ccc(-n3cncn3)c([N+](=O)[O-])c2)c1	-15%	-3%
CCOC(=O)C1CCN(C(=O)Cn2cc(C(=O)C3CC3)c3ccccc32)CC1	i	-15%
CCOC(=O)c1c2c(n(-c3ccc(OC)cc3)c1C)C(=O)C(=O)c1ccccc1-2	2.8µM*	4.5µM*
O=c1[nH]nc(N=Nc2c(O)[nH]c3ccc(F)cc23)c(=O)[nH]1	-3%	1%
O=C(Cn1cc(C(=O)c2cccs2)c2ccccc21)NCC1CCCO1 (centres undefined)	-10%	-14%
O=C(CN1CCN(Cc2cccc(F)c2)CC1)NCc1ccccc1	-7%	-16%
O=C(NCCN1C(=O)S/C(=C\c2ccccc2F)C1=O)C1CCN(S(=O)(=O)c2cccs2)CC1	-16%	16%
CN(C)C(CNC(=O)c1ccc(NS(=O)(=O)c2cccc([N+](=O)[O-])c2)cc1)c1ccco1 (centres undefined)	-15%	-9%
CCNC(=O)CCSc1nc2cc(Cl)ccc2o1	.	-20%
Cc1noc(C)c1CN1C(=O)NC2(CCCCCCC2)C1=O	-5%	2%
O=C(NN1CCCCC1)c1ccc(COc2ccc(Cl)cc2)cc1	-9%	-2%
CN(C)CCOC(=O)C12CC3(C)CC(C)(CC(C)(C3)C1)C2	-5%	-13%
CC(C)CC1NC(=O)N(CC(=O)Nc2ccc3c(c2)OCCO3)C1=O (centres undefined)	i	-9%
O=C(/C=C/c1ccc(Cl)cc1Cl)Nc1cccc(S(=O)(=O)NC2=NCCCCC2)c1	?	-26%
Cc1c(NC(=O)COc2ccc(C(C)C)cc2)c(=O)n(-c2ccccc2)n1C	-3%	-11%
CCOC(=O)N1CCN(C(=O)CNC(=O)c2nn(-c3ccc(OC)c(Cl)c3)c(=O)c3ccccc23)CC1	-11%	-17%
CC(C)Sc1nc2c(c(=O)[nH]c(=O)n2C)n1Cc1ccccc1	-24%	-6%
COC(=O)c1c(-c2ccc(Cl)cc2)noc1N1CCN(c2ccc(C(C)=O)cc2)CC1	?	?
O=C(CSc1nccn1-c1ccc(Cl)cc1)NCc1ccc2c(c1)OCO2	?	-15%
C[C@H](CO)N1C[C@H](C)[C@@H](CN(C)C(=O)Nc2ccc(C(F)(F)F)cc2)Oc2ccc(NC(=O)NC3CCCCC3)cc2C1=O	i	-14%

Some values from the list:
Reading of CCOC(=O)N1CCN(C(=O)CNC(=O)c2nn(-c3ccc(OC)c(Cl)c3)c(=O)c3ccccc23)CC1 under Vaccinia mCherry: -11%
Reading of O=c1[nH]nc(N=Nc2c(O)[nH]c3ccc(F)cc23)c(=O)[nH]1 under Vaccinia mCherry: -3%

Continued:
SMILES	Vaccinia mCherry	VACV Venus inh
COc1ccc(C(=O)Nc2nc3nc(C)c(Cc4ccccc4)c(=O)n3[nH]2)cc1OC	i	-11%
CCOc1ccc(S(=O)(=O)N(CC(=O)NC2CCCC2)c2ccc(F)cc2)cc1	-11%	-19%
O=C(CN1CCN(c2nc(-c3ccc(F)cc3)cs2)CC1)NCc1ccc2c(c1)OCO2	-28%	-24%
O=C(NCC1CCCO1)c1nc(Cn2ccc([N+](=O)[O-])n2)no1 (centres undefined)	i	-2%
COC(=O)C(C)Sc1nc2c(c(=O)n(C)c(=O)n2C)n1Cc1cccc(C)c1 (centres undefined)	.	-4%
CC(=O)NCCC1CCN(C(=O)c2cc(COc3ccc(C)nc3)on2)CC1	-22%	-10%
CC1CCN(S(=O)(=O)c2ccc(NC(=O)CN3CCCCCC3)cc2)CC1	?	-25%
Cc1cc(-c2ccc(S(=O)(=O)NCc3ccc(F)cc3)cc2)on1	-19%	-9%
O=c1c(-c2ccccc2)c(-c2ccccc2)oc2cc(O)cc(O)c12	-27%	-15%
NS(=O)(=O)c1ccc(CCNC(=O)CCc2nc3sc4c(c3c(=O)[nH]2)CCCC4)cc1	-12%	-17%
CC1CC(c2ccccc2)n2nc(N3C(=O)c4ccccc4C3=O)nc2N1 (centres undefined)	.	-5%
Cc1ccccc1-n1cc(C(=O)c2cc(Cl)ccc2O)cc(C#N)c1=O	-6%	-14%
S=C(Nc1ccccc1)Nc1ccccn1	-11%	-11%
COc1cccc(/C=N/NC(=O)C(=O)Nc2ccccc2OC(F)(F)C(F)F)c1	i	4%
O=c1c2ccccc2nnn1CSc1nc2ccccc2c(=O)n1Cc1ccco1	-2%	-11%
Cc1[nH]nc2c1C(c1ccc(-c3ccccc3C#N)o1)C(C#N)=C(N)O2 (centres undefined)	-10%	-9%
O=C(N/N=C\c1ccc(-c2cccc(Cl)c2)o1)C(=O)NC1CCCC1	-9%	-6%
NC(=O)COC(=O)c1ccc(Cl)c(S(=O)(=O)N2CCN(c3ccc(F)cc3)CC2)c1	i	-7%
CCOc1ccc2nc(N(Cc3ccccc3)C(=O)CCNC(C)=O)sc2c1	-14%	-15%
CCOCCn1c(CN2CCN(c3cccc(Cl)c3)CC2)nc2c1c(=O)n(C)c(=O)n2C	-14%	-12%
COc1ccc2cc3cc(C(=O)NCCC(C)C)oc3nc2c1	i	-6%
CCOc1ccc(NC(=O)CN(C)C(=O)c2cn(-c3ccccc3)nc2-c2cccs2)cc1OCC	?	19%
COc1ccc(Cl)cc1C(=O)NNC(=O)COC(=O)c1cccs1	i	0%
CCCC1C2C(=O)N(c3ccccc3OC)C(=O)C2ON1c1ccccc1 (centres undefined)	-9%	-6%
CC[C@]12c3[nH]c4ccc(OC)cc4c3CCN1C(=O)C(CC(=O)NCCC1=CCCCC1)C[C@@H]2C(=O)N1CCN(C(=O)C2CC2)CC1 (some centres undefined)	-9%	-18%
Further records follow.
SMILES	Vaccinia mCherry	VACV Venus inh
COc1cccc(CNc2ncnc3sc(C(=O)N4CCOCC4)c(C)c23)c1OC	-20%	-6%
Cc1ccc2nc(NC(=O)c3cccn(Cc4ccccc4F)c3=O)sc2c1	1%	12%
O=C(Nc1ccc(S(=O)(=O)N2CCOCC2)cc1)c1cccnc1	-7%[7.34 µM]	-11%[7.34 µM]
C[C@H]1[C@H](c2ccccc2)C[C@@H](C(=O)O)C1(C)C	-14%	5%
O=C(CSc1nc2ccccc2o1)N1CCCC1	0%	-9%
COc1ccc(-c2nc(N)nc(C(F)(F)F)c2-c2cscn2)c(O)c1	-11%	-4%
COC(=O)CCCC1=CC2=CC(=O)C(C)(OC(=O)c3cccs3)C(=O)C2=CN1C1CC1 (centres undefined)	5%	2%
COCCCN(CC(=O)Nc1ccc(N2CCOCC2)cc1)S(=O)(=O)c1ccc(C)cc1	-1%	-9%
CCc1ccc(/C=N/NC(=O)c2cc(-c3cccc([N+](=O)[O-])c3)n[nH]2)cc1	?	-16%
CSc1nnc(-c2ccc(NC(=O)CCc3ccccc3)cc2)n1C	-17%	-8%
COc1ccc(CNC(=O)CSc2cc(=O)n(C)c3ccccc23)cc1	-5%	-12%
O=C(NCCCc1ccccc1)C1CC1	-2%	-8%
CCOC(=O)[C@]12CCCC=C1N(CCc1ccc(OC)c(OC)c1)C(=O)[C@H](CC(=O)N1CCN(C(=O)C3CC3)CC1)C2	23%	1%
Cc1ncc(CO)c2c1Oc1nc(-c3ccccc3F)nc(SCC(=O)N3CCCCC3)c1C2	-3%	-8%
COc1ccccc1Oc1coc2c(CN3CCN(C)CC3)c(O)ccc2c1=O	i	-8%
N#Cc1c2n(c3c(-c4ccccc4)ncnc13)CCC2	.	-10%
CS(=O)(=O)Nc1ccc(-c2cccc3nccn23)cc1	40%[activator]	-6%
O=C(COC(=O)CC1CC2CCC1C2)Nc1ccccc1Cl (centres undefined)	-12%	-14%
CN(C)c1ccc(C(=O)Nc2c(C(=O)NC(C)(C)C)oc3ccccc23)cc1	-12%	-3%
COc1ccc2c(Cn3cnc4cc([N+](=O)[O-])ccc4c3=O)cc(=O)oc2c1	i	-18%
O=C(Nc1cccc(C(F)(F)F)c1)c1cccnc1NCCO	i	-16%
Cc1ccccc1CS(=O)(=O)Cc1ccc(C(=O)NCc2ccco2)o1	-14%	-8%
C[C@H](CO)N1C[C@H](C)[C@@H](CN(C)C(=O)Nc2ccc3c(c2)OCO3)Oc2ccc(NC(=O)NC3CCCCC3)cc2C1=O	-8%	-3%
CCOc1ccc(NC(=O)CSc2nc3c([nH]c4ccccc43)c(=O)n2C)cc1	3%	-9%
CC(CN1CCOCC1)(NS(=O)(=O)c1ccccc1)c1ccccc1 (centres undefined)	-10%	-2%
Next structures:
SMILES	Vaccinia mCherry	VACV Venus inh
Cc1cc(C)c2c(c1C)C(=O)CCC2	-14%	2%
CCc1nn(CC(=O)N2CCN(c3ccc(Cl)cc3)CC2)c(=O)c2cc3occc3n12	-8%	-2%
CCCNC(=S)Nc1ccc(Cl)cc1C	i	-7%
CCOC(=O)N1CCC(N2CCCC(C(=O)c3ccc4cc(OC)ccc4c3)C2)CC1 (centres undefined)	i	-13%
CC(C)n1nc(C(=O)OCn2nnc3ccccc3c2=O)c2ccccc2c1=O	-10%	7%
O=C(Cn1nc(C(=O)O)c2ccccc2c1=O)c1cc(F)ccc1F	-13%	-2%
COc1ccc(-n2nc(C(=O)NCC(=O)NCC3COc4ccccc4O3)c3ccccc3c2=O)cc1 (centres undefined)	-12%	-5%
CC(=O)OCc1cnc(C)c2oc(=O)c(C(=O)Nc3cc(F)ccc3C)cc12	-4%	1%
CC(C)NC(=O)[C@@H]1C[C@@H](Sc2nc3ccccc3[nH]2)CN1C1Cc2ccccc2C1	?	-25%
Cc1cc(NC(=O)c2ccc(N3CCCC3)c([N+](=O)[O-])c2)no1	-13%	-16%
C=C1CCN([C@@H](CC(C)C)C(=O)O)S(=O)(=O)c2ccccc21	i	-10%
CC(=O)N1CCN(C(=O)c2sc3ncnc(NCC4CCCO4)c3c2C)CC1 (centres undefined)	i	0%
CCC(C)Nc1nc2c(c(=O)n(C)c(=O)n2C)n1Cc1ccc(Cl)cc1 (centres undefined)	-22%	-6%
CC1CC(C)CN(C(=O)c2ccc3ncsc3c2)C1 (centres undefined)	i	-23%
CC1(C)CC(=O)C=C(c2cccc(OC(=O)c3ccc(Br)cc3)c2)C1=O	-8%	-15%
Cn1c(=O)n(C)c2cc(NS(=O)(=O)c3ccc(Cl)cc3)c(NCc3ccccc3)cc21	-19%	-2%
Cc1cccc(NC(=O)C2CCCN(S(=O)(=O)c3cccc4nsnc34)C2)n1 (centres undefined)	-17%	-20%
CC(=O)COc1ccc(-c2csnn2)cc1	-14%	-13%
COc1ccc(C(C)=O)cc1Cn1cnc2c(cnn2C)c1=O	-14%	-5%
O=C(Cn1c(=O)sc2ccccc21)Nc1ccc(O)cc1	-24%	-13%
Cn1c(=O)c2cc(S(=O)(=O)NC(C(=O)Nc3cccnc3)c3ccccc3)ccc2n(C)c1=O (centres undefined)	i	-15%
CC(=O)N(C)c1ccc(OCC(O)COc2ccc(N(C)C(C)=O)cc2)cc1	-7%	-5%
O=C(c1cccc(S(=O)(=O)N2CCN(c3ccccc3)CC2)c1)N1CCCCCCC1	-4%	-15%
Cc1ccc(S(=O)(=O)NCC(=O)OCC(=O)c2ccc(Cl)s2)cc1	-15%	-3%
CCN1CCN(S(=O)(=O)c2cccs2)CC1	-4%	17%

Part of the list above in order of count of non-hydrogen atoms, low to high:
SMILES	Vaccinia mCherry	VACV Venus inh
COc1ccc(C(C)=O)cc1Cn1cnc2c(cnn2C)c1=O	-14%	-5%
CC(=O)OCc1cnc(C)c2oc(=O)c(C(=O)Nc3cc(F)ccc3C)cc12	-4%	1%
CC(C)NC(=O)[C@@H]1C[C@@H](Sc2nc3ccccc3[nH]2)CN1C1Cc2ccccc2C1	?	-25%
O=C(c1cccc(S(=O)(=O)N2CCN(c3ccccc3)CC2)c1)N1CCCCCCC1	-4%	-15%
Cn1c(=O)c2cc(S(=O)(=O)NC(C(=O)Nc3cccnc3)c3ccccc3)ccc2n(C)c1=O (centres undefined)	i	-15%
COc1ccc(-n2nc(C(=O)NCC(=O)NCC3COc4ccccc4O3)c3ccccc3c2=O)cc1 (centres undefined)	-12%	-5%

Carrying on.
SMILES	Vaccinia mCherry	VACV Venus inh
CCOc1ccccc1OCC(=O)Nc1nnc(C)s1	i	0%
O=C1CC(c2ccccc2)=NN1c1ccc([N+](=O)[O-])cc1	-22%	-27%
O=C(CSc1nnc(CNC(=O)c2ccc(F)cc2)o1)NCc1ccccc1	-14%	-12%
COc1ccccc1NC(=O)C1CCCN1C(=O)Nc1ccc(F)cc1 (centres undefined)	-9%	12%
COc1ccc(OC)c(C(O)CNC(=O)CN)c1 (centres undefined)	-15%	-14%&-1%
Cn1c(-c2ccccc2)cc(=NNS(C)(=O)=O)c2cc(S(=O)(=O)O)ccc21	-21%	-6%
CC(=O)Nc1ccc2nc(-c3cc(C)ccc3C)[nH]c2c1	-28%	-21%
Cn1cc(/C=C2/SC(=O)N(CC(=O)Nc3ccc4c(c3)OCO4)C2=O)c2ccccc21	i	-12%
